Assay outcomes: PubChem, several laboratories
Arbovirus inh: antivirals against arbovirus infection, primary screen, cell-based, full library, 10K replicate subset | arbovirus infection cell-based antiviral screen | inhibition, % at 10 µM | 200,000 tested, 0.37% active;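 active means inhibition from about 30%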;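 further: bluetongue infection of BSR cells; cell survival read as ATP light after 72 h; 0% = infected wells without compound and 100% = uninfected wells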
Mtb H37Rv: M. tuberculosis H37Rv growth inhibitors, H37Rv strain (AID 1626) | 220,000 tested, 0.95% active | M. tuberculosis H37Rv growth inhibition; higher % means a stronger effect | inhibition, % at 10 µM, or IC50 in µM where a hit was titrated;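 active means confirmed in a dose series; inconclusive means inhibition above 80% but not taken into the dose series; inactive means below 80% or under 30% at every dose of the series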;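 further: bacteria incubated seven days before Alamar blue readout; 0% = bacteria only wells and 100% = bacteria with antibiotic wells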
RecA intein inh: Mtb RecA intein splicing inhibitors, primary screen, biochemical, fluorescence, HTS; Protein RecA (Mycobacterium tuberculosis (strain ATCC 25618 / H37Rv)), P9WHJ3; cell-free RecA intein splicing; inhibition, %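 (about 9 µM by stock and volumes)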; 290,000 tested, 0.75% active; AID 2221, 2009; in the data active means inhibition above about 30%; inconclusive means no clear call, values can overlap the other calls;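 further: 0% = vehicle wells and 100% = reference inhibitor control wells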
Target sequence (P9WHJ3 whole entry, looked up): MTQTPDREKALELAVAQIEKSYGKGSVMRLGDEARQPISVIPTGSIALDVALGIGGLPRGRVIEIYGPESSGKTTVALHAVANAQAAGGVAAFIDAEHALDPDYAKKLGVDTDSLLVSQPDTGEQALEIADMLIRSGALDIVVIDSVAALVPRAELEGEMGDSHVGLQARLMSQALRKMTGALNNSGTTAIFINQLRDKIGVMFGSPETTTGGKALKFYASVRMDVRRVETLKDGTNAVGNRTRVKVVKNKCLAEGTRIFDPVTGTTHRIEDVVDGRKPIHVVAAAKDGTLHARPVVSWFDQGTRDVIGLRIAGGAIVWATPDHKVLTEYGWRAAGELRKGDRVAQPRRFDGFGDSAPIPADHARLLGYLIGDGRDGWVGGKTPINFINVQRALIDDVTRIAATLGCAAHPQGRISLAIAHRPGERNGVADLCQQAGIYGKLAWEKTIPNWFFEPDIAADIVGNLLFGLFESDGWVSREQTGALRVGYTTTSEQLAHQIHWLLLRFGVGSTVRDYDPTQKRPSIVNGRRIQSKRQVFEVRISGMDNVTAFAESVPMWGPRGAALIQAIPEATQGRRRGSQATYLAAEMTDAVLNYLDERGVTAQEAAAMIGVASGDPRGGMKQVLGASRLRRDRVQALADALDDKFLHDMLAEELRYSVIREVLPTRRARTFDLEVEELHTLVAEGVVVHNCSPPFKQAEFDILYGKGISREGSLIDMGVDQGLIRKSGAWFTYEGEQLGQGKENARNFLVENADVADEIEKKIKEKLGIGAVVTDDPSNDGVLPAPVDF
Mtb betalactam: beta-lactam sensitization of Mtb H37Rv, H37Rv; M. tuberculosis H37Rv growth with meropenem, percent inhibition; hits of this screen are not shown here; 330,000 tested, 0.27% active; AID 434955, 2010; inhibition, % at 25 µM;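 active means about 74% or more and at least 40 points above the plate without the antibiotic, then above 30% in a dose series; inconclusive means first-round hits that could not be retested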;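 further: growth measured after seven days incubation then overnight dye step; 0% = bacteria only wells and 100% = bacteria with antibiotic; twin plates without the antibiotic show which effects depend on it; some results filed as inactive read as strong as hits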
YopH inh: YopH tyrosine phosphatase inhibitors, primary screen, biochemical, fluorescence Ex485/Em525 | inhibition, %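 (about 10 µM by stock and volumes)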 | 140,000 tested, 0.16% active | AID 898, 2007;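 active means inhibition of 50% or more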;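 further: controls were vehicle for no effect and minimum signal wells for full effect; inactives centre near -20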
* marks the source's active call; other numbers are inactive results; ? = inconclusive; / = no result given. Not all compounds are listed; the hit share may differ from the screen's.

The first 2 records (preview)
Values run as follows: Arbovirus inh	Mtb H37Rv	RecA intein inh	Mtb betalactam	YopH inh
- CN1/C(=C\C(=O)Nc2ccc(F)cc2)C(C)(C)c2ccccc21
 : -2	22%	13	94	-27
- COC(=O)c1c(NC(=O)/C=C/C(=O)O)sc(Cc2ccccc2)c1C
 : 10	2%	51*	-1	-30

The listing, previewed entries included:
Values run as follows: Arbovirus inh	Mtb H37Rv	RecA intein inh	Mtb betalactam	YopH inh
- CN1/C(=C\C(=O)Nc2ccc(F)cc2)C(C)(C)c2ccccc21
 : -2	22%	13	94	-27
- COC(=O)c1c(NC(=O)/C=C/C(=O)O)sc(Cc2ccccc2)c1C
 : 10	2%	51*	-1	-30
- COC(=O)C1=C(C)N(Cc2ccc(C)cc2)C(=O)/C1=C\c1cc(OC)c(OC)c(OC)c1
 : -2	3%	/	1	-9
- CC(C)(C)Sc1ccc2nc3c(n2c1)CCCC3
 : 11	34%	2.5	49	-21
- CCc1ccc(OCc2nnc(SCc3ccc(C(=O)O)cc3)o2)cc1
 : 9	19%	6.1	0	/
- C[C@@H](NC(=O)[C@@H]1Cc2ccccc2CN1C(=O)OC(C)(C)C)C(=O)NCc1ccco1
 : /	/	1.6	0	/
- CC1CN(C2CCN(C(=O)c3cccc(Cl)c3)CC2)CC(C)O1 (centres undefined)
 : 1	4%	-1.6	5	-3
- C#CCOCCOCCOCCNc1nc(N2CCN(C(=O)C([C@@H](C)CC)n3cc(C(N)CC(C)C)nn3)CC2)nc(N2CCN(C(=O)[C@H](CCCCN)n3cc(C(N)COC(=O)C(F)(F)F)nn3)CC2)n1 (some centres undefined)
 : /	-9%	-1.9	7	/
- CCOC(=O)c1c(NC(=O)c2ccc(N3C(=O)C4C5C=CC(C5)C4C3=O)cc2)sc2c1CCCC2 (centres undefined)
 : 2	-5%	-20	3	-21
- CCC(=O)c1c(NCCc2ccccc2)cc(C)oc1=O
 : -10	-15%	0.5	-10	/
- CC(=O)Nc1ccc(C(=S)NCc2ccco2)cc1
 : 6	-9%	12	9	-30
- COc1ccc(NS(=O)(=O)c2ccc3[nH]c(=O)[nH]c3c2)cc1OC
 : /	/	0.4	-7	/
- COc1ccc2nc(N3CCOCC3)cc(C)c2c1
 : -1	-8%	-5.2	8	-12
- COc1ccc2oc(=O)c(C(=O)Nc3ccccc3O)cc2c1
 : /	-5%	0.9	63	/
- COc1cc(N=c2c([N+](=O)[O-])nn(-c3ccc4c(c3)OCCO4)n2O)cc(OC)c1
 : -31	90%	-2.1	6	-10
- O=C(Nc1ncccc1Cl)c1cc2ccccc2o1
 : /	/	4.2	-4	/
- O=C(NCc1ccco1)C1CC(c2ccccc2C(F)(F)F)=NO1 (centres undefined)
 : /	-10%	-0.8	2	/
- COc1cccc(OCC(O)CNC(C)c2ccccc2)c1 (centres undefined)
 : /	/	4.6	-8	/
- Cc1noc(C)c1CCC(=O)N1CCCC(N2CCN(c3ccc(F)cc3)CC2)C1 (centres undefined)
 : /	/	1.1	-13	/
- COc1ccc(CNC(=O)C(CCSC)NC(=O)c2ccco2)cc1 (centres undefined)
 : 1	1%	3.2	-10	-11
- CC1CCN(c2nc(-c3cccnc3)nc3scc(-c4ccccc4)c23)CC1
 : -22	5.9µM*	-1.8	66	-11
- O=C(c1ccc2c(=O)n(-c3ccccc3)c(=S)[nH]c2c1)N1CCCCC1
 : 7	11%	-0.6	0	/
- Cc1nn2c(NCCOCCO)c3c(nc2c1-c1ccccc1)CCC3
 : /	0%	0.0	-8	/
- Cc1ccc(S(=O)(=O)Nn2cnnc2)cc1
 : /	2%	0.8	-6	/
- O=C(NCc1ccc2c(c1)OCO2)C(=O)NC1CCCCC1
 : -10	-4%	-3.2	76	-8
- CNS(=O)(=O)c1ccc(NC(=O)c2cc(-c3ccncc3)nc3ccc(Cl)cc23)cc1
 : /	/	3.1	5	/
- COc1ccc(/C(C)=N/NC(=O)CNC(=O)c2ccncc2)cc1
 : /	/	-2.1	-4	/
- Cc1ccc(S(=O)(=O)Nc2nc3ccccc3nc2NCC2CCCO2)cc1 (centres undefined)
 : /	-7%	-6.0	-3	/
- CCOc1ccc(-n2c(O)c(C=Nc3ccc(NC(C)=O)cc3)c(=O)[nH]c2=O)cc1
 : /	4%	1.0	4	/
- COc1ccccc1Nc1ncc(C(=O)N2CCC(C(N)=O)CC2)c2ccccc12
 : -5	-2%	/	-3	-31
- N#C/C(=C\c1ccc(-c2ccccc2Cl)o1)C(=O)Nc1nc2ccccc2s1
 : 13	-4%	-3.4	-6	1
- COc1cc(NC(=O)c2ccc(Cl)cc2Cl)ccc1-c1cc2ccccc2oc1=O
 : -27	6%	-2.2	2	-25
- O=C(CCCCC(=O)NCc1cccs1)NCc1cccs1
 : 0	-12%	-0.2	-2	4
- COCC(N)(c1ccccc1)c1nc2ccccc2n1C (centres undefined)
 : 6	-4%	0.7	6	-26
- Cc1ccc(NC(=O)CN(C)C2CCCCC2)cc1Cl
 : /	/	0.2	-5	/
- Cc1ccc(NC(=O)c2ccc(NS(=O)(=O)c3c(C)noc3C)cc2)cc1C
 : -3	-2%	3.1	61	-39
- C=CCn1cnc2c(nnn2Cc2ccc(F)cc2)c1=O
 : /	8%	-6.9	-8	/
- Cc1ccc(C)c(SCC(=O)NC(=O)Nc2ccc3c(c2)OCCO3)c1
 : 3	0%	1.1	-6	-15
- CN(C)S(=O)(=O)c1cccc(COC(=O)c2ccc3c(c2)OCO3)c1
 : 7	6%	2.4	-11	/
- Cc1ccc(N/C=C/C(=O)c2cccs2)cc1
 : -4	-10%	-0.8	-3	/
- CN(CC(=O)Nc1nc2ccc(F)cc2s1)S(=O)(=O)c1ccc(Cl)cc1
 : 2	0%	3.1	10	11
- COc1cc(-c2ccc3c(=O)c4ccccc4n(C)c3c2)cc(OC)c1OC
 : /	/	-23	5	/
- COc1cccc(-n2cnc3sc4c(c3c2=O)CCC4)c1
 : -3	6%	3.5	-9	/
- O=C(O)[C@H](CO)Nc1ncnc2sc3c(c12)CCC3
 : 7	/	-5.5	-1	9
- O=C(c1cccs1)N1CCC(Cc2ccccc2)CC1
 : -12	-3%	3.2	-7	-24
- CN(C)C(=O)COC(=O)c1ccccc1Sc1ccccc1C#N
 : 10	8%	-1.8	5	/
- O=C(/C=C/Nc1cccc(O)c1)c1ccccc1
 : -5	1%	-2.7	5	-23
- CCCC(=O)NNc1c2ccccc2nc2ccccc12
 : -6	5%	-11	-5	-12
- Cc1cc(C)n(CCNC(=O)c2cc(COc3c(F)cccc3F)on2)n1
 : 6	-6%	0.7	10	/
- CCC(C)NC(=O)c1ccccc1NC(=O)CN(c1ccc(OC)cc1)S(C)(=O)=O (centres undefined)
 : 0	-5%	-0.7	0	-8
- COc1ccc(NS(=O)(=O)c2ccc(O)c(NC(=O)c3cc4c(C)nn(-c5ccc(F)cc5)c4s3)c2)cc1
 : 10	77%	-2.3	?	-19
- CCCOc1cccc(C(=O)N2CCN(C(=O)C3CCCO3)CC2)c1 (centres undefined)
 : /	/	5.2	0	/
- Cc1occc1C(=O)NNC(=O)Nc1ccc([N+](=O)[O-])cc1
 : -3	-4%	0.1	-2	/
- O=C(O)c1cc2nc3c(c(C(F)(F)F)n2n1)CCCC3
 : 0	-9%	0.3	4	/
- CCC1(C)NC(=O)N(CC(=O)Nc2sc3c(c2C(N)=O)CCC3)C1=O (centres undefined)
 : 2	-6%	-0.8	-4	-12
- Cc1cc(NC(=O)CSc2ccnc(=O)[nH]2)no1
 : /	/	1.8	-1	/
- COc1cccc(C2Nc3ccccc3NC3=C2C(=O)CC(C)(C)C3)c1 (centres undefined)
 : /	/	-5.5	1	/
- COc1cc(OC)c(NC(=O)C2CC(=O)N(c3ccc4c(c3)OCCO4)C2)cc1Cl (centres undefined)
 : /	/	2.1	-12	/
- Cc1nc2cccnc2nc1C
 : /	-2%	-3.5	-5	/
- S=C(Nc1ccccc1)N1N=CCC1c1ccccc1 (centres undefined)
 : -7	4%	2.0	/	-15

Next part.
Values run as follows: Arbovirus inh	Mtb H37Rv	RecA intein inh	Mtb betalactam	YopH inh
- COc1cccc(-c2nc(SCC(=O)Nc3nc(-c4ccccc4)c(C)s3)[nH]c(=O)c2C#N)c1
 : 58*	5%	/	1	/
- COc1cc(C(=O)NC(=S)NNC(=O)c2cnccn2)cc(OC)c1OC
 : -39	-4%	4.9	1	-14
- COc1cc(C2NCC(c3ccc(Cl)cc3Cl)c3c2[nH]c2ccccc32)cc(OC)c1OC (centres undefined)
 : -34	?	22	90	-35
- Cc1cc(C(=O)Nc2ccccc2)c2ccccc2n1
 : /	/	-0.4	2	/
- C=CCNc1nc(C(=O)OCC)nc2ccccc12
 : -2	-4%	-1.9	6	/
- O=C(CCCCn1c(=S)[nH]c2ccsc2c1=O)NCc1ccco1
 : -4	3%	-1.8	-17	-36
- COCCn1c(SCC(=O)Nc2ccc3c(c2)OCCO3)nnc1-c1c[nH]c2ccccc12
 : 10	-8%	/	-2	-48
- COc1ccccc1N1C(=O)c2cccc3c(N(C)CCO)ccc(c23)C1=O
 : /	/	-4.4	-1	/
- COc1cc(OC)cc(C(=O)NCCc2ccc(OC)c(OC)c2)c1
 : /	/	0.0	-4	/
- Cc1ccc(C)c(N(C)C(=O)COc2cc(=O)n(C)c3ccccc23)c1
 : 1	-2%	3.1	-3	-18
- COc1ccc(COC(=O)C2=C(C)NC(=O)NC2c2ccccc2OC(C)C)cc1 (centres undefined)
 : /	/	3.1	3	/
- Cc1nn(Cc2ccccc2)c(C)c1NC(=O)CSc1nc(-c2ccccc2)nc2c1cnn2-c1ccccc1
 : -1	/	2.2	/	7
- O=C(CN(Cc1ccccc1C(F)(F)F)C(=O)CNC(=O)c1ccco1)NC1CCCC1
 : 2	5%	0.2	-5	-41
- CCc1nn(-c2cc(Oc3ccccc3)nc(-c3ccccc3)n2)c(N)c1C#N
 : 8	5%	-2.6	14	-21
- CCCNC(=O)c1onc(CSc2ccc(F)c(F)c2)c1C(=O)NCCC
 : /	0%	3.5	-2	/
- COc1ccccc1N1CCN(c2nc3ccccc3nc2C(C#N)C(=O)OC(C)C)CC1 (centres undefined)
 : 6	44%	8.3	25	-93
- CC(=O)N1c2ccc(S(=O)(=O)N3CCC(C(=O)NCc4ccc(F)cc4)CC3)cc2CC1C (centres undefined)
 : /	/	0.2	2	/
- Cc1c(CCO)c(=O)n(-c2ccccc2)n1S(=O)(=O)c1ccc([N+](=O)[O-])cc1
 : -1	5%	-1.1	-2	/
- COc1cc(C(=O)OCC(=O)Nc2ccc(C)cc2)cc(OC)c1OC
 : /	/	1.2	-4	/
- Cc1ccc(NC2CCCN(C(=O)CCCN3CCCCC3=O)C2)cc1C (centres undefined)
 : /	/	-5.5	3	/
- COc1cc(C(=O)OCCc2c(C)nc3nc[nH]n3c2=O)cc(OC)c1OC
 : 1	-5%	-1.4	0	/
- Clc1ccc(Cn2cc(/C=N/n3cnnc3)c3ccccc32)c(Cl)c1
 : -23	10%	-0.4	2	-12
- C/C(=N\OCC(=O)OCC(=O)NC(=O)c1ccccc1)c1ccc2c(c1)OCO2
 : /	/	0.8	1	/
- CCN1CCCC1CN(Cc1cc2ccc(C)cc2[nH]c1=O)C(=S)Nc1ccc(OC)cc1OC (centres undefined)
 : -23	10%	-10	11	-9
- CC(=O)NC(C)C12CC3CC(CC(C(=O)O)(C3)C1)C2 (centres undefined)
 : 2	3%	-11	2	11
- O=C(NCC(=O)N(c1ccccc1)C(C(=O)NCC1CCCO1)c1ccccc1)c1cccs1 (centres undefined)
 : /	/	-3.3	3	/
- Cc1c(NC(=O)CSc2nnc(-c3ccco3)n2-c2ccccc2)c(=O)n(-c2ccccc2)n1C
 : 2	-4%	-0.6	-15	-7
- CCc1ccc(Cn2nnc(C(=O)Nc3ccc(OC)cc3OC)c2N)cc1
 : -1	-6%	0.3	10	7
- CC(=O)c1nnn(-c2ccc(F)cc2F)c1C
 : /	-5%	-1.6	-2	/
- Cc1nn(CC(=O)N2CCOCC2)c(C)c1[N+](=O)[O-]
 : 12	-5%	-0.6	2	-29
- CC(=O)c1ccc(Sc2ccc(C(C)=O)cc2)cc1
 : 1	8%	4.4	7	-16
- O=c1c2sccc2nc(SCc2cc(=O)n3cc(Cl)ccc3n2)n1Cc1ccccn1
 : -1	1%	2.3	-6	/
- CCc1[nH]nc2c1C(Cc1ccccc1)C(C#N)=C(N)O2 (centres undefined)
 : 0	-7%	59*	2	-2
- CC(=O)N1CCN(Cc2ccc(Br)s2)CC1
 : -2	-1%	0.5	-4	-16
- O=C(Nc1ccc(-c2nc3cccnc3s2)cc1)c1ccc(Cl)nc1
 : /	-1%	-0.3	-5	/
- Cc1nn(C(=O)c2ccco2)c(C)c1Sc1ccc(Cl)cc1
 : 9	13%	0.2	0	-16
